# TRPML1 inh – qHTS for Inhibitors of the Human Mucolipin Transient Receptor Potential 1 (TRPML1); activity change, negative = inhibition, % (concentration not given with the values); TRPML1-inducible cells, Ca2+ dye fluorescence, FDSS; hits give low values; inhibition of EC80 agonist-evoked calcium signal; 390,000 compounds, 0.02% hits; Mucolipin-1 (Homo sapiens), Q9GZU1; AID 624415, 2012; in the data active means activity change below about -50%; inconclusive means about -30% to -50%; inactive means above about -30%;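 further: stimulus is agonist 54-4 at its EC80 concentration; on the % scale 0 is the no-effect control and ±100 the full control effect; the text of the record puts the active cut at -80%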
# Target sequence (Q9GZU1 whole entry, looked up): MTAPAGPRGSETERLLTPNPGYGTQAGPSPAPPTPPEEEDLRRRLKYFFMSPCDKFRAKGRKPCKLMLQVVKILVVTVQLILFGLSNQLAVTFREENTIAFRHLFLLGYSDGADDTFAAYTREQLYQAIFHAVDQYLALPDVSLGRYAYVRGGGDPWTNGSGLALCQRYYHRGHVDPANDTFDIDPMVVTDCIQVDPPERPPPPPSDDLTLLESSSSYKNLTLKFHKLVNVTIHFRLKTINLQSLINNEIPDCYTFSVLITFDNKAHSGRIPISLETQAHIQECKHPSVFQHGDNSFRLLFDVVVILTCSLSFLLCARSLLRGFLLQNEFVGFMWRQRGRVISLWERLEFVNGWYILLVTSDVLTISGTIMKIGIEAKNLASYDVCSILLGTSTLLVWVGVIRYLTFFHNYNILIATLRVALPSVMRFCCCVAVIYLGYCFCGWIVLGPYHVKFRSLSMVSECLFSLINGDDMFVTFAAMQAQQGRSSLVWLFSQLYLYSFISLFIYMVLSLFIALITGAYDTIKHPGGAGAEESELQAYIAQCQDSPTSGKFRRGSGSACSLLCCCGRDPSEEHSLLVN
#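 TRPML1-DL cells, Tet-induced overnight (~16 h, 37 °C) at 1,500 cells/well, were loaded with Ca8 no-wash dye plus quencher for 45-90 min at room temperature. Compounds were pinned during FDSS kinetic reading; agonist 54-4 at EC80 (4 uM final) then added.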
# TRPML1 agonist – qHTS for Agonists of the Human Mucolipin Transient Receptor Potential 1 (TRPML1); Mucolipin-1 (Homo sapiens), Q9GZU1; TRPML1-expressing cells, Ca2+ dye fluorescence, FDSS; host cell line not named in the record; reference of the full effect not given here; activation, % (no concentration beside the values); 410,000 compounds, 0.12% hits; AID 624414, 2012; in the data active = activation above about 50%; inconclusive = about 30% to 50%; inactive = below about 30%; further: 0% is about no effect; the text of the record puts the active cut at 80%
#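 Tetracycline-induced TRPML1-DL cells are seeded and incubated overnight before loading with a no-wash Ca2+ dye and quencher. Agonist activity is taken from the 110 s fluorescence read following compound pin-transfer on an FDSS, before EC80 54-4 challenge.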
# * marks the source's active call; other numbers are inactive results; ? = inconclusive. The list is partial; the hit share may differ from the screen's.
SMILES,TRPML1 inh,TRPML1 agonist
O=C(Nc1ccc(F)cc1F)c1ccc(CN2CC(=O)N3CCCCC3C2=O)cc1 (stereo not given),93,-0.6
COc1ccc(C)cc1NC(=O)Nc1cccc(OCc2cc(=O)n3ccc(C)cc3n2)c1,-22,-0.4
Cc1nc(N2CCOCC2)c2c(C(=O)NCc3cccc(Cl)c3)c(C)oc2n1,20,1.0
Cc1ccc(S(=O)(=O)C(CNC(=O)c2c(F)cccc2F)c2ccco2)cc1 (stereo not given),-9,-0.6
Cc1ccc(CNC(=O)c2cc3sc(Cl)cc3n2C)cc1,0,0.2
COc1ccc(-c2onc(C)c2C)cc1S(=O)(=O)NCc1ccc(Br)cc1,13,2.4
COC(=O)c1c(NC(=O)c2ccc(S(=O)(=O)N3CCC(C)CC3)cc2)sc2c1CCN(C)C2,2,0.9
COc1cccc(CNC(=O)CCn2cccn2)c1,-3,0.3
Cc1ccc(C)c(NC(=O)c2cnn(-c3ccc(F)cc3F)c2C2CCNCC2)c1,-4,0.8
CC(=O)Nc1ccc(NC(=O)Cn2c(=O)ccc3cc(S(=O)(=O)N4CCC(C)CC4)ccc32)cc1,-3,0.0
COC(=O)c1cc(S(=O)(=O)N2CCN(c3cccc(C)c3)C(C)C2)cn1C (stereo not given),-6,0.3
Cc1cccc(-c2nc(C)c(CCNC(=O)C(=O)Nc3ccccc3C#N)s2)c1,-6,4.1
Cc1cccc(N2CCN(C(=O)Cn3ncc4c3-c3cc(C)ccc3OC4)CC2C)c1 (stereo not given),11,0.4
CCOc1ccc(NC(=O)c2oc3ccccc3c2NC(=O)Cc2ccc(F)cc2)cc1,3,-1.1
COc1ccc(-n2c(SCC(=O)Nc3cc(C)cc(C)c3)nc3c(oc4ccccc43)c2=O)cc1,-9,-0.2
Cc1cccc(NS(=O)(=O)c2ccc3c(c2)CCCN3C(=O)C2CCC2)c1C,-10,-0.6
CC1(C)CC(=O)c2cc(-c3nc(-c4ccc(Cl)cc4)cs3)c(=O)n(-c3ccc(F)cc3)c2C1,26,0.7
CCOc1ccc(-n2cc(C(=O)Nc3ccccc3OCC)c3cc(OC)c(OC)cc3c2=O)cc1,-11,-0.8
COc1ccc(NC(=O)C2CCN(C3=NS(=O)(=O)C(c4ccc(C)c(C)c4)=C3C)CC2)c(OC)c1,28,3.1
COc1ccc(-n2nnnc2C2CCN(S(=O)(=O)c3ccc(C)cc3)CC2)cc1,5,1.2
Cc1ccc(CCNC(=O)C(NS(=O)(=O)c2ccc3c(c2)oc(=O)n3C)C(C)C)cc1 (stereo not given),-3,0.4
COc1cc(C2Nc3ccccc3-c3nnc(SCc4ccc(C)cc4)nc3O2)cc(OC)c1O (stereo not given),39,1.9
Cc1nc2sc(C(=O)NCc3ccc(Cl)cc3)c(NC(=O)c3ccccc3)c2c(C)c1C,-17,1.5
Cc1ccc(-n2nc(C(=O)N3CCN(c4cccc(C(F)(F)F)c4)CC3)c3c4ccccc4n(C)c3c2=O)cc1,-19,0.3
CCc1ccc(S(=O)(=O)c2nnn3c2nc(Nc2ccc(NC(C)=O)cc2)c2sccc23)cc1,-6,-0.2

# Following part:
SMILES,TRPML1 inh,TRPML1 agonist
Cc1ccc(-n2nc(CO)c(C(=O)NC(C)CCCc3ccccc3)n2)cc1 (stereo not given),25,4.4
CCOC(=O)c1cc(-c2ccc(C)cc2)n(CCCC(=O)Nc2cc(C)ccc2C)c1,-10,3.6
O=C(NNc1ncnc2c1cnn2-c1ccccc1)c1ccccc1,19,1.5
CCOC(=O)c1ccc(NC(=O)CC2Nc3cccc4cccc(c34)NC2=O)cc1 (stereo not given),13,-0.4
CCOc1ccc(CCNC(=O)CSc2nnnn2-c2ccccc2)cc1OCC,12,1.2
O=C(Nc1ccccc1C(F)(F)F)N1CCC(CN2CCc3ccccc3C2)CC1,7,0.9
Cc1cccc(N2CCN(C(=O)c3cnc4c(C)cccn4c3=O)CC2C)c1 (stereo not given),29,0.4
CCCSc1nc2sc3c(c2c(=O)n1Cc1ccccc1)CC(C)(CC)OC3 (stereo not given),35,0.3
CCOC(=O)C1(C)C=C(Nc2ccc(Br)cc2)C(=O)N1c1ccccc1 (stereo not given),-2,-1.2
COc1ccc(-n2c(Cc3ccccc3)nnc2SCc2nc(-c3cccs3)no2)cc1,-8,-0.4
Cc1c2cnn(CC(=O)N3CCN(c4ccc(F)cc4)CC3)c(=O)c2c(C)n1Cc1ccc(F)cc1,-12,0.7
Cc1ccc(CNC(=O)Cn2cc(S(=O)(=O)Cc3ccccc3Cl)c3ccccc32)cc1,-27,3.1
COc1ccc(OC)c(NC(=O)c2c(NCc3ccc(OC)c(OC)c3)sc3c2CCC3)c1,10,-0.4
COc1ccc(-c2noc(CSc3nnc(Cc4ccccc4)n3-c3ccccc3)n2)cc1OC,-13,0.9
COc1cccc(CNCCSc2nnnn2C)c1OCc1ccccc1Cl,11,-0.8
Cc1ccc(Cn2c(CN3CCC(C(=O)O)CC3)cc3ccccc32)cc1,14,0.7
Cc1ccc(Nc2sc(C(=O)c3ccccc3)c(N)c2S(=O)(=O)c2ccccc2)c(C)c1,2,-0.3
COc1ccc(-n2ncc(C(=O)N3CCN(C4CCCCC4)CC3)c2C2CCN(C(=O)OC(C)(C)C)CC2)cc1,-7,0.8
COc1ccc(-c2nc(C)c(CCNC(=O)c3cccs3)s2)cc1OC,12,2.2
COc1ccc(-c2nc(CS(=O)CC(=O)NCc3ccccc3Cl)c(C)o2)cc1OC (stereo not given),-24,-0.9
COc1ccccc1-c1nnc(C2CCN(C(=O)c3ccc(C)cc3)CC2)o1,-15,1.3
O=C(COc1ccc(Cl)cc1)Nc1cc(-c2ccccc2)no1,13,-0.8
CCN(CC)/[N+]([O-])=N/OCOC(=O)c1ccccc1OC(C)=O,-6,1.6
COc1ccccc1N1CCN(C(=O)c2cc3c(=O)n(Cc4cccs4)ccc3nc2C)CC1,-25,0.6
CCCn1cc(S(=O)(=O)c2ccc(CC)cc2)c(=O)c2cc(F)c(N3CCN(C)CC3)cc21,-6,-0.4

# A different layout for 6 compounds above:
Structure | TRPML1 inh | TRPML1 agonist
Cc1ccc(Nc2sc(C(=O)c3ccccc3)c(N)c2S(=O)(=O)c2ccccc2)c(C)c1 | 2 | -0.3
COc1ccc(-n2ncc(C(=O)N3CCN(C4CCCCC4)CC3)c2C2CCN(C(=O)OC(C)(C)C)CC2)cc1 | -7 | 0.8
COc1ccc(-c2nc(C)c(CCNC(=O)c3cccs3)s2)cc1OC | 12 | 2.2
COc1ccc(-c2nc(CS(=O)CC(=O)NCc3ccccc3Cl)c(C)o2)cc1OC (stereo not given) | -24 | -0.9
COc1ccccc1-c1nnc(C2CCN(C(=O)c3ccc(C)cc3)CC2)o1 | -15 | 1.3
O=C(COc1ccc(Cl)cc1)Nc1cc(-c2ccccc2)no1 | 13 | -0.8

# (more compounds)
SMILES,TRPML1 inh,TRPML1 agonist
Cc1ccc(Cn2c(CNC(=O)Cc3cccc(C)c3)nc3cccnc32)cc1,14,-0.8
O=C(Cn1c(=O)nc(-c2ccccc2)c2cc(Cl)ccc21)NCc1ccccc1,47,1.7
CCCOc1ccc(C2c3c(-c4ccccc4O)n[nH]c3C(=O)N2Cc2cccnc2)cc1 (stereo not given),4,1.0
COc1ccc(NC(=O)CSc2nccn2C2CCCC2)cc1OC,-10,1.2
Cc1cccc(CNC(=O)c2ccc(NC(=O)N3CCSc4ncccc43)cc2)c1,10,1.2
COc1ccc(-n2c(SCC(=O)Nc3ccc(Cl)c(C)c3)nc3n[nH]c(C)c3c2=N)cc1,3,2.1
CSc1ccc(CCNC(=O)c2cnn(-c3ccccc3)c2-n2cccc2)cc1,6,1.8
Cc1ccc(-c2nnc(Nc3ccc(Cl)c(Cl)c3)c3ccccc23)cc1S(=O)(=O)NCCO,-5,-0.7
CCC(=O)N1CCc2cc(CNC(=O)C(CC)c3ccccc3)ccc21 (stereo not given),14,1.5
Cc1ccc(-n2ncc(C(=O)Nc3ccc4c(c3)OCO4)c2C2CCN(C(=O)OC(C)(C)C)CC2)cc1,-28,0.2
Cc1cc(O)c(C(c2ccccc2)N2CCN(c3ccc(F)cc3)CC2)c(=O)n1Cc1ccco1 (stereo not given),-16,0.2
COc1cccc(CNC(=O)CCc2c(C)c3cc4c(C)c(C)oc4cc3oc2=O)c1,1,-0.6
CN(C)c1ccc(CNC(=O)CN2C(=O)CCn3nc(-c4cn(C)c5ccccc45)cc32)cc1,-3,0.4
Cc1ccsc1CN(C(=O)COc1ccccc1Cl)C1CCS(=O)(=O)C1 (stereo not given),19,-0.5
Cc1csc2nc(-c3cccc(NC(=O)c4ccc(S(N)(=O)=O)cc4)c3)cn12,2,0.0
COc1cccc(NC(=O)Cn2c(=O)ccc3cc(S(=O)(=O)N4CCC(C)CC4)ccc32)c1,-3,2.3
COc1ccc(-c2cc(C(F)(F)F)n3nc(C)c(-c4ccccc4)c3n2)cc1OC,-3,0.7
COc1ccccc1NC(=O)Cn1c(=O)n(CCc2ccccc2)c(=O)c2c3c(sc21)CN(C(C)=O)CC3,13,-0.7
CCOc1cc(C#N)c(NC(=O)c2ccc(OC)c(S(=O)(=O)N3CCCC3)c2)cc1OCC,24,0.6
Cc1cc(OCC(=O)N(Cc2ccc(N(C)C)cc2)Cc2ccco2)cc(C)c1Cl,39,1.3
COc1ccc(-c2c(C#N)c(SCC(=O)Nc3ccc(C)cc3)nc(C)c2C(=O)Nc2ccccc2)cc1,3,-0.1
COc1cccc(CNC(=O)c2cc(-c3cccc(OC)c3)n[nH]2)c1,-11,2.1
COc1ccc(C2C(C(=O)Nc3ccccc3)=C(C)Nc3nc(-c4ccccc4Cl)nn32)cc1OC (stereo not given),-6,-0.2
COc1ccc(C(=O)c2sc3nc4c(c(C(F)(F)F)c3c2N)CN(C(C)=O)CC4)cc1OC,-15,10
CCOC(=O)c1ccc(NC(=O)CCn2c(=O)c3cccn3c3cccnc32)cc1,-1,1.2

# (listing goes on)
SMILES,TRPML1 inh,TRPML1 agonist
CCOC(=O)c1c(NC(=O)c2nc(SCC)ncc2Cl)sc2c1CCCC2,20,-0.7
COc1ccc(Cn2c(=O)c3cccnc3n(Cc3cccc(F)c3)c2=O)cc1,32,0.5
O=S(=O)(NCCc1csc2nc(-c3ccc(Cl)cc3)nn12)c1ccc2c(c1)OCCO2,22,2.6
CCCCOC(=O)c1ccc(Nc2nc3ccccc3c3nnc(C)n23)cc1,12,1.4
COc1ccc2c(c1)c1c(c(=O)n(Cc3ccccc3)c(=O)n1Cc1ccc(C)cc1)n2C,5,1.0
COc1cccc(CN(C(=O)COc2ccc(Cl)c(C)c2)C2CCS(=O)(=O)C2)c1 (stereo not given),3,-0.3
Cc1cc(C)n(-c2nc3ccccc3nc2Nc2cccc(C(=O)NCCc3ccccc3)c2)n1,-13,-0.1
CCCCCCc1cc2cc(-c3nnc(-c4cccc(Cl)c4)o3)c(=O)oc2cc1O,40,14
CCc1ccc(-n2c(=O)c3c4c(sc3n(CC(=O)NCCCOC)c2=O)CCC4)cc1,-5,0.1
COc1ccc(N(C(=O)COc2ccccc2OC)S(=O)(=O)c2ccc(Cl)cc2)cc1,-2,2.5
COc1cc2c(=O)c(S(=O)(=O)c3ccc(F)cc3)cn(Cc3ccc(Cl)cc3)c2cc1OC,1,-0.2
OCCN1CCN(c2ncnc3c2cnn3-c2cccc(Cl)c2)CC1,-5,-0.4
O=C(Cn1ncc2c([nH]c3ccccc32)c1=O)Nc1cccc(C(F)(F)F)c1,-12,1.7
Cc1ccccc1NC(=O)c1c(NC(=O)c2ccccc2)sc2c1CCC2,8,2.0
CC(C)Oc1ccc(C(=O)N(Cc2ccco2)Cc2cccs2)cc1,8,4.4
CCc1cnc2c(c1SCC(=O)Nc1ccc(C(=O)OC)cc1)c(=O)n(C)c(=O)n2C,4,0.0
Cc1ccc(-n2nc(C)c3c(C(=O)O)cc(C)nc32)cc1,5,-0.1
Cc1cc(Cl)ccc1OCC(=O)Nc1c(C(=O)c2ccccc2)oc2ccccc12,22,1.3
CCCC(=O)Nc1cc(-c2nc3cccnc3s2)ccc1C,-1,0.6
CCCc1cc(=O)[nH]c(SCc2nc(-c3ccccc3)no2)n1,16,0.8
COc1ccc(S(=O)(=O)NCCc2csc(-c3cccc(F)c3)n2)cc1OC,21,0.4
CC(C)c1nn2c(=O)cc(COC(=O)c3cccc(NC(=O)CCc4ccccc4)c3)nc2s1,11,1.4
Cc1ccccc1C1CC(=O)Nc2ccc3ccccc3c21 (stereo not given),23,-1.4
Cc1csc2nc(COC(=O)c3ccccc3NC(=O)c3ccccc3Cl)cc(=O)n12,-7,1.9
CCOC(=O)c1c(C)oc2nc(C)nc(NCCCN3CCN(c4cccc(C)c4)C(C)C3)c12 (stereo not given),?,-0.3

# Sorted by count of non-hydrogen atoms (ascending): some entries from above.
SMILES,TRPML1 inh,TRPML1 agonist
Cc1ccccc1C1CC(=O)Nc2ccc3ccccc3c21 (stereo not given),23,-1.4
CCOC(=O)c1c(NC(=O)c2nc(SCC)ncc2Cl)sc2c1CCCC2,20,-0.7
Cc1csc2nc(COC(=O)c3ccccc3NC(=O)c3ccccc3Cl)cc(=O)n12,-7,1.9
COc1ccc2c(c1)c1c(c(=O)n(Cc3ccccc3)c(=O)n1Cc1ccc(C)cc1)n2C,5,1.0
